MbtI inh = blocks the Mycobacterium tuberculosis siderophore enzyme MbtI | purified MbtI enzyme, fluorescence intensity read-out | hit rate 0.89% among 100,000 | inhibition, %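 (about 17 µg/mL by stock and volumes)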;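 active means above 50% in both replicates, above 80% if mildly self-fluorescent; inactive means the rest, strongly fluorescent compounds included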;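 further: 0% = mean of negative and 100% = mean of positive controls; one replicate is shown; some compounds called inactive have numbers as strong as hits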
Target sequence (P9WFX0 whole entry, looked up): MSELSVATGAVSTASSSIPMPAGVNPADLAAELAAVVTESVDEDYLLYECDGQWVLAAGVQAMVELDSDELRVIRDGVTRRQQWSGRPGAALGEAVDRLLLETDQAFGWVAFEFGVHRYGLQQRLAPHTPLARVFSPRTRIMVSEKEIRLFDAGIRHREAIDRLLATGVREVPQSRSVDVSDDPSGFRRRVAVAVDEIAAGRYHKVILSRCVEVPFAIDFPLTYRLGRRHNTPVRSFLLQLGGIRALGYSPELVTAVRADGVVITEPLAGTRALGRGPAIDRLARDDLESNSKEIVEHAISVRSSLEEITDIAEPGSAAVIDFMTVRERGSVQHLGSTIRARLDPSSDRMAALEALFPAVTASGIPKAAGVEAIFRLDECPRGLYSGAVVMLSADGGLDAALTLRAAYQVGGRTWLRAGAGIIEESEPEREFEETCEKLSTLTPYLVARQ
An asterisk follows results filed as active; i = inactive. Only part of the results is shown; the hit share may differ from the screen's.

SMILES	MbtI inh
CC(C)N1CC(C(=O)O)CC1=O (stereo not given)	-8
Cc1ccc(CN(Cc2ccco2)C(=S)Nc2c(C)cc(C)cc2C)cc1	10
CC1=CC(C)(C)Nc2ccc(OC(=O)CN3C(=O)CCC3=O)cc21	64
Cc1cc(-c2ccccc2)n(-c2cc(Cl)ncn2)n1	-15
CC(C)(C)C(N)Cn1cccn1 (stereo not given)	-20
CC1(C(=O)c2ccccc2)C2c3cc(Br)ccc3OC(=O)C21C(=O)NCc1ccccc1 (stereo not given)	-9
O=C1c2ccccc2C(=O)C1c1ccc(O)cc1	-88
N/C(=N/O)c1nn(-c2ccccc2)nc1N1CCCCC1	-9
CN1C2CCC1CC(OC(=O)C(c1ccccc1)c1ccccc1)C2 (stereo not given)	-11
CC1CCN(c2nc3c([nH]2)c(=O)n(C)c(=O)n3C)CC1	4
CC1(C)Oc2ccc3ccc(=O)oc3c2C(N2CCCCC2)C1O (stereo not given)	-14
Cc1cccc(NC(=O)CSc2nsc(SCC(=O)Nc3cccc(C)c3)n2)c1	-4
Cc1ccc(S(=O)(=O)N(C)CCCc2nc3ccccc3[nH]2)cc1	4
CCOC(=O)c1cccc2c3c([nH]c12)C(C(=O)OCC)CCC3 (stereo not given)	18
Cc1cccnc1-n1c(CCN2C(=O)c3ccccc3C2=O)nc2ccccc2c1=O	4
CN1CC=C(c2c[nH]c3ccccc23)CC1	-79
Cc1ccc(N2C(=O)Nc3ccccc3C2(O)C(=O)NC2CCCC(C)C2C)cc1C (stereo not given)	1
CN1CCN(CCN2C(=O)c3ccccc3C2=O)CC1	-16
Cc1c2cnn(CC(=O)O)c(=O)c2c(C)n1Cc1ccccc1	-5
CN(Cc1ccccc1)c1nc(-c2ccccc2)cc(C(F)(F)F)n1	3
c1ccc(-c2nc3nonc3c3nc4ccccc4n23)cc1	-6
Cc1cc2ccccc2c(=O)n1CC(=O)NCC(=O)N(C)C1CCCCC1	6
Nc1nonc1-n1nnc2c1CCCC2=O	-12
Cc1nccn1CCCN1C(=O)OC(C)(C)C1(C)O (stereo not given)	-11
CC(=O)n1c2cc(C#N)c(C#N)cc2oc2nc3ccccc3nc2c2ccccc21	-6
COC(=O)CSc1cccc2cccnc12	76
Cn1c(=O)n(C)c2cc(C3C(C#N)=C(N)Oc4c3ccc3ccccc43)ccc21 (stereo not given)	-8
COc1ccccc1-c1n[nH]n2c1nc(=O)c1ccccc12	-13
CN(Cc1ccccc1)c1nc2c(c(=O)n(C)c(=O)n2C)n1CCSc1nc2ccccc2o1	-3
CCC(=O)N1CCc2cc(Br)cc(S(=O)(=O)CC(=O)OC)c21	-1
CCc1ccccc1NC(=S)N(CCN(C)C)Cc1cccs1	7
COC(=O)CCS(=O)(=O)c1ccc2ccccc2c1	0
Cc1ccc(NC(=O)CCC2CC(C)(C)OC2=O)cc1 (stereo not given)	-13
O=C(NC1CCCC1)C1CCN(Cc2cnn(-c3ccccc3)c2-n2cccc2)CC1	-5
CN(C)c1nc(N)nc(N(c2ccccc2)c2ccccc2)n1	-8
COc1nnc(Cl)c2ccccc12	-6
O=C(O)CCCC(=O)Nc1ccc(C(=O)O)cc1	1
c1ccc(NCc2ccco2)cc1	-14
CCOc1ccc2c(c1)C(SCC(=O)O)CC1(CCCC1)O2 (stereo not given)	0
CC(=O)Nc1nc(CC(C)C)cc(-c2ccco2)c1C#N	10
Nc1cc(CCCC(=O)O)sc1CCCC(=O)O	2
Cc1nn(C(=O)c2cccc(Cl)c2)c(N)c1-c1ccccc1	-2
CCc1c(C)n2nc(C)cc2[nH]c1=O	56
CCOc1ccc(CN(CCO)CCO)cc1C(=O)OC	-3
O=C(c1ccccc1)c1cccs1	3
O=C(O)Cn1cc2c(n1)CCCCC2	-4
CN(CCc1ccccn1)S(=O)(=O)c1ccc(F)cc1	-8
c1ccc2c(-c3ccncc3)c[nH]c2c1	-90
Cc1ccccc1-n1nnc2c(=O)oc3ccccc3c21	-13
c1ccc(-c2n[nH]c(-c3ccccn3)n2)nc1	-26
The results go on:
SMILES	MbtI inh
CCOC(=O)Nc1ccc(C)cn1	-10
CCn1c(SCC(=O)c2ccccc2)nc2ccccc2c1=O	-6
O=C(O)CSCC(=O)N1CCOCC1	-1
Cc1nc(C)c(-c2cc(C)c3c(C)nc(C)nc3n2)c(N)n1	-7
COC(=O)C1(O)CC(C)N(C)CC1C (stereo not given)	-9
O=C(NC1CCCCC1)c1cc2ccccc2oc1=O	-12
Cc1cn(-c2ccc(Br)cc2)[nH]c1=O	80
CC(=O)Oc1cccc(-c2nc3ccccc3c(=O)o2)c1	-2
NCc1cc2ccccc2s1	-11
COC(=O)C1=NOC2C(=O)N(c3ccccc3)C(=O)C12 (stereo not given)	-3
CCOC(=O)c1ccc(NC(=O)COC(=O)c2cc3ccccc3o2)cc1	3
CCOc1ccc(NC(=O)c2cccnc2)cc1	-5
Cc1cccc(NS(=O)(=O)C2CCS(=O)(=O)C2)c1 (stereo not given)	-3
O=S(=O)(Cc1ccccc1)c1nc2ccccc2[nH]1	-16
O=C(O)C1CCCN(C(=O)c2ccccc2)C1 (stereo not given)	-9
C1CCCCCC(NCCN2CCNCC2)CCCCC1	-16
CCCOc1cccc(CN2CCCCC2c2cccnc2)c1 (stereo not given)	-14
COC(=O)c1sc(S(=O)(=O)NC(C)C(=O)O)c(C(=O)OC)c1C (stereo not given)	-7
COC(=O)C(C)Nc1n[nH]c(=O)[nH]c1=O (stereo not given)	-12
C=CCOc1ccc(C(=O)Nc2ccccn2)cc1	-5
CN(C)S(=O)(=O)NCc1ccc2c(c1)OCO2	-1
COc1ccc(CNC(=O)c2cn(CC(C)C)c(=O)c3cc(OC)c(OC)cc23)cc1	14
CCC1CC(CSC(=N)N)OC1=O (stereo not given)	-4
Cc1c(C(=O)O)nn(-c2ccccc2)c(=O)c1C#N	-3
NC1(CC(=O)O)CCCCC1	-5
CS(=O)(=O)NCCc1nc(-c2ccccc2)cs1	-12
Cc1ccccc1C(=O)OCCN1CCCCC1	-11
CCCc1cc(=O)n2[nH]c(-c3ccccc3)cc2n1	-102
COc1ccc(CCNc2cc(=O)oc3ccccc23)cc1OC	-8
CCS(=O)(=O)c1ccc(O)c(NC(=O)c2cccs2)c1	13
CC1(C2(O)CCCCC2)NCCc2ccccc21 (stereo not given)	3
O=c1[nH]ncn2nc(-c3ccc(F)cc3)cc12	0
CSc1nc(-c2ccccc2)nc2[nH]c(-c3ccccc3)cc(=O)c12	-2
CCn1c(N2CCCCCC2)nc2c1c(=O)[nH]c(=O)n2C	-6
CCCN1CCN(C(=O)Cn2cnc3sc(C)c(S(=O)(=O)N4CCC(C)CC4)c3c2=O)CC1	-2
CCOC(=O)c1oc2c(c1C)C(=O)CCC2	-8
CCC(=O)OCCn1c(=O)c2cc3c(=O)n(CCOC(=O)CC)c(=O)c3cc2c1=O	-2
CCC(Sc1nc2ccccc2s1)C(=O)Nc1ccccc1C#N (stereo not given)	0
O=C(Nc1nonc1-c1nc2ccccc2[nH]1)c1ccccc1Cl	19
O=c1[nH]c(-c2ccccc2)nc2c1sc(=S)n2Cc1ccccc1	6
O=C(O)C1CCCc2c1[nH]c1ccc(Br)cc21 (stereo not given)	39
CCN(Cc1ccccc1)C(=O)CN1C(=O)c2ccccc2C1=O	-2
CC(=O)Nc1c(O)nc(SCC(=O)NC(C)c2ccccc2)n(-c2ccccc2)c1=O (stereo not given)	-14
CC(=O)Nc1cc(C(=O)O)ccc1Sc1ccccc1	-6
CC(C)C(CO)NC(=O)Oc1ccccc1 (stereo not given)	-12
c1ccc(COc2ccc(CNCc3cccnc3)cc2)cc1	4
CCC1(O)CC(C)N(C)CC1C (stereo not given)	-6
O=C(O)C1Cc2ccccc2CN1C(=O)c1ccccc1 (stereo not given)	1
O=S1(=O)CCC(OC2CCS(=O)(=O)C2)C1 (stereo not given)	-14
c1ccc(Cn2nnc3c(N4CCc5ccccc54)ncnc32)cc1	-1
(listing goes on)
SMILES	MbtI inh
CC(C)COC(=O)CN1C(=O)C2C3c4ccccc4C(c4ccccc43)C2C1=O (stereo not given)	-7
C=CCn1c(CCCO)nc2ccccc21	-8
CCC(C)C(NCc1cccc(C)c1)C(=O)O (stereo not given)	-14
CC(C)OC(=O)CN1CCN(C2c3ccccc3-c3ccccc32)CC1	-10
COC(=O)c1ccccc1NC(=O)Cn1ccnc1	-8
COC(=O)c1ccc2c(c1)N=C(Cl)c1ccccc1S2	-4
CCc1ccc2c(c1)C(NC(C)=O)C(=O)N2 (stereo not given)	-13
O=C(CN1CC(c2ccccc2)CC1=O)OCc1ccccc1F (stereo not given)	3
COc1ccc(C2C(C(=O)NCC3CCCO3)c3ccccc3C(=O)N2C)cc1 (stereo not given)	-19
CN(C(=O)c1ccccc1F)C(C(=O)Nc1ccc2c(c1)OCCO2)c1ccccc1 (stereo not given)	-10

The final two entries of the section above come first, to join the parts:
SMILES	MbtI inh
COc1ccc(C2C(C(=O)NCC3CCCO3)c3ccccc3C(=O)N2C)cc1 (stereo not given)	-19
CN(C(=O)c1ccccc1F)C(C(=O)Nc1ccc2c(c1)OCCO2)c1ccccc1 (stereo not given)	-10
N#Cc1cc2c(nc1SC1CCCCC1O)CCCC2 (stereo not given)	-5
CCOc1ccc(C(=O)Cc2ccccc2)cc1	-2
O=C1C2C(c3ccccc3)C=CC(c3ccccc3)C2C(=O)N1c1cccc(O)c1 (stereo not given)	-9
CCC(C)N1C(=O)C2C(C(=O)Nc3cccc(C)c3)C3C=CC2(O3)C1C(=O)NC1CCCC(C)C1C (stereo not given)	0
CS(=O)(=O)Nc1nnc(SCC(=O)Nc2ccccc2)s1	2
O=S(=O)(c1cccs1)n1nnc2ccccc21	-5
CCOc1ccc(OCc2ccc(C(=O)OCc3ccccn3)o2)cc1	0
CC1CC(C)CN(c2nnc(N)s2)C1 (stereo not given)	-8
CN(C)c1ccc(/C(N)=N/O)cc1	-1
Oc1ccccc1CN1CCCCC1	-18
CC(C)(C)C(=O)N1CCn2c1nc1ccccc12	-11
COC(=O)C1CC(=O)OC1c1ccccc1 (stereo not given)	-1
O=C(NCCc1ccccc1)c1ccccc1NS(=O)(=O)N1CCCC1	-145
CCS(=O)(=O)N1CCC(C(=O)NCCCN2CCCCC2)CC1	-16
COc1c(N)c2ccccc2[nH]c1=O	-46
O=c1c(N2CCOCC2)nsn1Cc1ccccc1	7
O=C(O)c1cccc(Nc2nc(-c3cccs3)cs2)c1	33
CC1(C)CC2(CCCN(CC#N)C2)CCS1 (stereo not given)	-8
CC(=O)OCC12COC3c4ccccc4OC(C)(CC1C)C3C2C (stereo not given)	-6
CC(=O)Nc1c(O)[nH]c2ccccc12	-6

Rewritten bar-delimited: part of the list above.
SMILES | MbtI inh
N#Cc1cc2c(nc1SC1CCCCC1O)CCCC2 (stereo not given) | -5
CCOc1ccc(C(=O)Cc2ccccc2)cc1 | -2
O=C1C2C(c3ccccc3)C=CC(c3ccccc3)C2C(=O)N1c1cccc(O)c1 (stereo not given) | -9
CCC(C)N1C(=O)C2C(C(=O)Nc3cccc(C)c3)C3C=CC2(O3)C1C(=O)NC1CCCC(C)C1C (stereo not given) | 0
CS(=O)(=O)Nc1nnc(SCC(=O)Nc2ccccc2)s1 | 2
O=S(=O)(c1cccs1)n1nnc2ccccc21 | -5
CCOc1ccc(OCc2ccc(C(=O)OCc3ccccn3)o2)cc1 | 0
CC1CC(C)CN(c2nnc(N)s2)C1 (stereo not given) | -8
CN(C)c1ccc(/C(N)=N/O)cc1 | -1
Oc1ccccc1CN1CCCCC1 | -18
CC(C)(C)C(=O)N1CCn2c1nc1ccccc12 | -11
COC(=O)C1CC(=O)OC1c1ccccc1 (stereo not given) | -1
O=C(NCCc1ccccc1)c1ccccc1NS(=O)(=O)N1CCCC1 | -145
CCS(=O)(=O)N1CCC(C(=O)NCCCN2CCCCC2)CC1 | -16
COc1c(N)c2ccccc2[nH]c1=O | -46
O=c1c(N2CCOCC2)nsn1Cc1ccccc1 | 7
O=C(O)c1cccc(Nc2nc(-c3cccs3)cs2)c1 | 33
CC1(C)CC2(CCCN(CC#N)C2)CCS1 (stereo not given) | -8
CC(=O)OCC12COC3c4ccccc4OC(C)(CC1C)C3C2C (stereo not given) | -6
CC(=O)Nc1c(O)[nH]c2ccccc12 | -6

Remaining list, next part
SMILES	MbtI inh
O=C(O)Cn1c(=O)oc2cc(S(=O)(=O)N3CCCCCC3)ccc21	1
CC1CN(C(=O)c2cccc(Cl)c2)CC(C)O1 (stereo not given)	-14
COc1ccc2c(c1OC)C(=O)N1c3ccccc3COC21 (stereo not given)	-5
C=CCN(CC=C)Cc1c[nH]c2ccccc12	-6
Cc1cc2nn(-c3ccccc3)nc2cc1NC(=O)c1ccccc1	-5
COCc1cc(=O)n2[nH]cc(-c3ccc(Cl)cc3)c2n1	i
CCC(=O)c1ccc(OC(=O)C(C(C)C)N2C(=O)c3ccccc3C2=O)cc1 (stereo not given)	-10
O=C(Cc1ccccc1)Nc1ccc(-c2nnc(-c3ccco3)o2)cc1	-54
Cc1nn(-c2ccccc2)c2sc(-c3n[nH]c(=S)o3)cc12	-360
CCOC(=O)c1sc(NC(=O)/C=C/c2ccc(Cl)cc2)cc1C	-9
Cc1ccc(S(=O)(=O)Nc2ccc(O)c(Sc3ncn[nH]3)c2)cc1	-8
CCn1c(=S)sc2c(=O)[nH]c(-c3ccc(OC)c(O)c3)nc21	-10
CC(C)NC1=NCCS1	-6
Cc1ccc2cnn(CC(=O)N3CCCCC3)c2c1	-6
COC(=O)c1ccc(C(=O)N2CCOCC2)cc1	-6
O=C(NCCc1ccccc1)C1CCN(Cc2cnn(-c3ccccc3)c2-n2cccc2)CC1	-5
O=C(O)c1ccc2c3c(cccc13)CC2	93
N=c1oc2ccccc2cc1C(=O)Nc1ccc(Cl)cc1Cl	-13
CCOC(=O)Cc1nnn(CC(=O)OCC)n1	-2
CCN(C(=O)Cc1c(C(=O)O)n(CC)c2ccccc12)c1cccc(Cl)c1	-1
CN(C)C(=O)Oc1ccc(-c2nnco2)cc1	-13
O=C(Cc1cccc2ccccc12)Nc1cccc(C(=O)N2CCOCC2)c1	-9
NC(=O)CSc1nnnn1CC(CC(=O)O)c1ccccc1 (stereo not given)	-2
O=C(O)c1cccc(S(=O)(=O)N2Cc3ccccc3C2)c1	-9
CC1CC(C)CN(CCCNC(=O)C2CCCN(c3nnc(N4CCCC4=O)s3)C2)C1 (stereo not given)	-12
